Anaer choline gr: inhibitors of anaerobic choline-dependent gram-negative bacterial growth. Gram-negative bacterium anaerobic choline minimal medium, absorbance growth; active compounds read low; many inactives read as strong as hits in the columns shown. calls only. 0.2% of 55,000 active. AID 1963822;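 active = growth z-score on choline under -2 at 7 or 20 h with little or no fall on glycerol, limits in tiers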;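 note: stock transfer was 300 nL into about 50 µL; the organism is E. coli; final concentration not given here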
Anaer choline gr early: second read-out of Anaer choline gr, no call of its own (marks repeat the call); z-score; measured here: choline growth z-score, timepoint 1;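 score of optical density at 7 h as mean of two plates; lower means less growth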
An asterisk follows results filed as active; i = inactive; & = joins results of further samples. A portion of the library; count on the stated rates, not on these rows.

Second line of a record – Anaer choline gr	Anaer choline gr early
CC(C)N1C(=O)CCC1C(=O)N1CCN(c2cccc(Cl)c2)CC1 (configuration not stated)
 : i	-0.55
Cn1c(=O)n(C)c2cc(S(=O)(=O)NC3CC3)ccc21
 : i	-2.25
O=C1C(=O)N(C2CCN(C(=O)c3ccccc3Br)CC2)CCN1Cc1ccccc1
 : i	-0.55
CCOc1ccc(N(Cc2nc3nc(C)cc(=O)n3[nH]2)C(=O)C(C)(C)C)cc1
 : i	-0.27
CC(=O)Nc1ccccc1-c1nc2ccccc2n(CC(=O)c2ccc(Br)cc2)c1=O
 : i	-0.96
COC(=O)CC(NC(=O)C(C)NC(=O)C(NC(=O)OCc1ccccc1)C(C)C)C(=O)CF (configuration not stated)
 : i	0.7
O=C(Cn1c2ccccc2n2c(=O)cc(-c3ccccc3)nc12)Nc1ccc(F)cc1F
 : i	-1.14
COc1ccc(NS(=O)(=O)c2ccc(/C=C\c3onc(C)c3NC(C)=O)cc2)cc1OC
 : i	0.71
Cc1cccc(S(=O)(=O)NCC(c2ccc(N(C)C)cc2)N(C)C)c1 (configuration not stated)
 : i	-0.26
O=S(=O)(NCCn1c(-c2ccc(F)cc2)nc2cccnc21)c1ccc(F)cc1
 : i	-0.31
CCOC(=O)Cn1c2ccc(Br)cc2c2nc3ccccc3nc21
 : i	0.35
CCOC(=O)c1c(C)[nH]c(C(=O)N2CCCC(C(=O)N3CCCCC3)C2)c1C (configuration not stated)
 : i	-0.82
O=C1CCS(=O)(=O)N1c1ccc(S(=O)(=O)N2CCOCC2)cc1
 : i	-0.29
CC(C)c1nc(SCC(=O)NCC2CCCO2)c2c(=O)n(C)c(=O)n(C)c2n1 (configuration not stated)
 : i	0.81
O=S(=O)(Nc1ccc(-c2ccc(N3CCCC3)nn2)cc1)c1ccccc1F
 : i	-0.17
COc1ccc(C(=O)NCc2nc3cccnc3n2Cc2ccccc2)cc1OC
 : i	-0.73
CCn1c(=O)c(N2CCCC(C(=O)NCCc3c[nH]c4ccc(C)cc34)C2)nc2ccccc21 (configuration not stated)
 : i	0.6
COc1cccc(C2=NN(S(C)(=O)=O)C(c3cn(-c4ccccc4)nc3-c3ccc(C)cc3)C2)c1 (configuration not stated)
 : i	0.24
CCCC(=O)N1CCc2c(c(C(=O)NCc3ccccc3)nn2C)C1
 : i	-0.38
COCc1c(Br)c(C)nc2sc3c(=O)[nH]nnc3c12
 : i	0.23

Quoted from the listing, six compounds:
Second line of a record – Anaer choline gr	Anaer choline gr early
O=C1CCS(=O)(=O)N1c1ccc(S(=O)(=O)N2CCOCC2)cc1
 : i	-0.29
CC(C)c1nc(SCC(=O)NCC2CCCO2)c2c(=O)n(C)c(=O)n(C)c2n1 (configuration not stated)
 : i	0.81
O=S(=O)(Nc1ccc(-c2ccc(N3CCCC3)nn2)cc1)c1ccccc1F
 : i	-0.17
COc1ccc(C(=O)NCc2nc3cccnc3n2Cc2ccccc2)cc1OC
 : i	-0.73
CCn1c(=O)c(N2CCCC(C(=O)NCCc3c[nH]c4ccc(C)cc34)C2)nc2ccccc21 (configuration not stated)
 : i	0.6
COc1cccc(C2=NN(S(C)(=O)=O)C(c3cn(-c4ccccc4)nc3-c3ccc(C)cc3)C2)c1 (configuration not stated)
 : i	0.24

One compound at a time, from the list above. Values in the order: Anaer choline gr	Anaer choline gr early
CCOC(=O)Cn1c2ccc(Br)cc2c2nc3ccccc3nc21 is entered as i	0.35
CC(=O)Nc1ccccc1-c1nc2ccccc2n(CC(=O)c2ccc(Br)cc2)c1=O is entered as i	-0.96

The results go on:
Second line of a record – Anaer choline gr	Anaer choline gr early
COc1ccc(N2CCN(CCNC(=O)CN3C(=O)COc4ccccc43)CC2)cc1
 : i	-0.92
CN(Cc1ccccc1)C(=O)c1nn(C)c2c1CSc1ccc(F)cc1-2
 : i	0.91
c1ccc(-c2nc3ccccc3c3nnc(SCc4cccnc4)n23)cc1
 : i	0.84
COc1cc(OC)c(NC(=O)c2ccc(CN3C(=O)CCn4nccc43)cc2)cc1Cl
 : i	-1.5
CC(C)CNC(=O)CN1c2ccccc2NC2=C(C(=O)CC(C)(C)C2)C1c1ccco1 (configuration not stated)
 : i	0.12
COC(=O)c1sccc1NC(=O)Cn1cc(-c2nc(-c3ccc(C)cc3)no2)ccc1=O
 : i	-0.93
Cc1cc(C)c(S(=O)(=O)Nc2ccc(N3CCN(C4CCCCC4)CC3)cc2C(=O)O)cc1C
 : i	-1.61
O=c1ccc(-c2cccc(Cl)c2)nn1CCc1nc(-c2ccc3c(c2)OCO3)no1
 : i	0.68
CN[C@H](CC(=O)O)C(=O)O
 : i	0.12
CC(C)CNC(=O)C1CCCN(c2ccnc(-c3ccc(F)cc3)n2)C1 (configuration not stated)
 : i	0.59
Clc1cccc(N2CCN(c3nn4cnnc4c4ccccc34)CC2)c1
 : i	-0.05
CC(C)NC[C@H](O)COc1ccc(CC(N)=O)cc1
 : i	0.7&0.08&-0.51
CCn1nccc1C1CCCN1S(=O)(=O)c1cc(C)c(C)cc1C (configuration not stated)
 : i	-0.21
Cc1ccc2nc(CSc3nnc(NC(=O)C(C)C)s3)cc(=O)n2c1
 : i	-0.57
CCCCC(=O)Nc1cc(Cl)ccc1OCc1cc(=O)n2oc(C)cc2n1
 : i	0.42
CCc1ccc(NC(=O)C2CCN(c3ncnc4c3sc3ncccc34)CC2)cc1
 : i	1.38
CCN1C(=O)c2c(C(=O)NC3CC3)ncn2CC1(C)C(=O)NCCCOC(C)C (configuration not stated)
 : i	-0.08
CC1(C)CC(=O)c2cc(C(=O)Nc3ccccc3)c(=O)[nH]c2C1
 : i	0
CCCc1nnc2n1NC(c1ccc(C)cc1)C(C(=O)Nc1ccc(C)cc1C)S2 (configuration not stated)
 : i	-1.34
CCOC(=O)c1cc2n(n1)CC(C)(C(=O)NC1CCCCC1)N(c1ccc(NC(C)=O)cc1)C2=O (configuration not stated)
 : i	-0.34

(list continues)
Structure | Anaer choline gr | Anaer choline gr early
CCc1cc2c(N(C)c3ccccc3)ncnc2s1 | i | -0.36
CCOCCOC(=O)c1ccc2c(c1)N(Cc1ccccn1)C(=O)c1ccccc1S2 | i | -2.78
COc1ccc(C2CC(=O)C3=C(C2)Nc2onc(C)c2C3c2ccccc2OC)cc1OC (configuration not stated) | i | 0.17
CC(C)c1ccc(NC(=O)COc2ccc3cc4c(=O)n(-c5cccc(Cl)c5)nc-4oc3c2)cc1 | i | 0.12
CCCn1c2c(c(SCc3ccc(C)cc3)nc1=O)CCC2 | i | -0.3
O=C(c1ccc(OCCN2CCCCC2)cc1)c1c(-c2ccc(O)cc2)sc2cc(O)ccc12 | i | 0.54&-0.46&-1.07&-1.78
Cc1ccc(C(=O)Nc2ccc3c(c2)CC(C(=O)NCCC(C)C)CO3)cc1 (configuration not stated) | i | 1.57
CC(C)CCNC(=O)C1CCN(C(=O)c2ccc(NC(=O)c3ccc(Cl)cc3)cc2)CC1 | i | 0.56
O=C(CSc1nc2ccccc2n2cnnc12)NC1CCCCC1 | i | 0.24
CCCn1cnc2nc(CSc3ccccc3NC(=O)c3ccc(C)cc3)cc(=O)n21 | i | 0.67
O=C(Nc1ccc2c(c1)OCO2)c1ccc(Nc2ccc(-c3cccc(F)c3)nn2)cc1 | i | -0.16
Cc1cccc(NC(=O)C2CCCN(C(=O)C3Sc4ccccc4NC3=O)C2)c1C (configuration not stated) | i | -0.26
O=C(Nc1ccc(N2CCN(c3ncccn3)CC2)c(C(=O)O)c1)c1ccc(Cl)cc1 | i | -0.95
Cc1ccc(CN2CCN(C3CCN(C(=O)NC4CCCC4)CC3)C(=O)C2=O)cc1 | i | -0.88
Fc1cc(Br)ccc1Nc1ncnc2c(-c3ccccc3)noc12 | i | 1.47
CC(C)c1ccc(-c2noc(SCC(=O)N3CCN(c4ccccc4)CC3)n2)cc1 | i | 2.45
O=C(CN1CCn2nc(-c3ccccc3)cc2C1=O)NCCc1ccc(Cl)cc1 | i | 0.6
O=C(c1sc(=S)n2c1[nH]c(=O)c1cc3c(cc12)OCO3)N1CCCC1 | i | -0.53
Cc1ccc(-c2[nH]ncc2CN2CCCC2c2cc(C)on2)cc1 (configuration not stated) | i | -1.45
Cc1occc1-c1nnc2sc(COc3ccc(Br)cc3)nn12 | i | 1.08
Cc1ccccc1NC(=O)c1nnc(CSCC(=O)N2CCN(c3ccccn3)CC2)s1 | i | -0.58
O=C(NCc1ccc(F)cc1)c1cccc(-c2cc(NC3CCCCC3)ncn2)c1 | i | -0.58
CC(=O)N1c2cc(S(=O)(=O)N3CCC(Cc4ccccc4)CC3)c(Br)cc2CC1C (configuration not stated) | i | 0.74
COc1ccc(Cl)cc1S(=O)(=O)N1CCC(n2cnc3cc(F)ccc3c2=O)CC1 | i | 0.87
CNC(=O)c1ccc(N2CCCN(Cc3ccccc3C)C2=O)cc1 | i | -0.79
O=C(NC1CC1)c1ccc2c(c1)nc1n2CCCC1 | i | -0.69
Cc1ccc(/C=C/c2nc(-c3ccc4c(c3)[nH]c(=O)c(=O)n4C(C)C)no2)cc1 | i | -0.05
Cc1cccc(OCC(=O)N2CCN(c3nc4ccccc4cc3-c3noc(C)n3)CC2)c1 | i | -0.07
COc1cccc(C2CC(=O)Nc3c2cnn3-c2nc3ccccc3s2)c1OC1CCCC1 (configuration not stated) | i | 0.71
CCc1cccc(C)c1Nc1c(-c2ccccc2O)nc2cnc(Br)cn12 | i | 2.2
Nc1nc2c(c(=O)[nH]1)C(c1ccc(Br)cc1)CC(=O)N2 (configuration not stated) | i | 0.65
CC(CCc1ccccc1)NC(=O)C1CCCN(c2ccc(-c3ccccc3)nn2)C1 (configuration not stated) | i | 0.69
CN(C)C(=O)C(CCN1CCC(O)(c2ccc(Cl)cc2)CC1)(c1ccccc1)c1ccccc1 | i | -0.05&0.65&0.01&0.47
Cn1nccc1C(=O)N1CCC(Oc2cc(N3CCCC3)ncn2)C1 (configuration not stated) | i | -0.53
Cc1ccc(S(=O)(=O)c2ccc(C(=O)O)cn2)cc1C | i | -0.15
Cc1cccc(-c2nc3ccc(C(=O)NCCN4CCOCC4)cc3nc2-c2cccc(C)c2)c1 | i | 0.33
Cc1ccc(-c2cc3c(SC(C)C)nccn3n2)cc1C | i | 0.71
Cc1nn(-c2ccccc2)c(C)c1CCc1nn2c(C(C)(C)C)nnc2s1 | i | -0.9
COc1ccc(CNC(=O)C2CCN(Cc3cn(C)c4ccc(OC)cc34)CC2)cc1 | i | -0.62
Cc1ccc(Nc2ncc(C(=O)Nc3ccc(F)cc3)c3ccccc23)cc1Cl | i | -0.12
Cc1ccc(OC(C)C(=O)Nc2ccc3c(c2)NC(=O)CO3)cc1C (configuration not stated) | i | 1.98
Cc1nn2c(S(=O)(=O)N3CCCCC3)c(C(C)C)nc2s1 | i | -0.5
O=C(CSc1nnc2sc3ccccc3n12)c1ccc(Cl)cc1 | i | 0.64
CCOc1ccc(-c2ccc(OCCNC(=O)c3sc(-c4ccccc4)nc3C)nn2)cc1 | i | -0.16
O=C(Cn1ccn2nc(-c3ccc4c(c3)OCO4)cc2c1=O)Nc1cc(F)ccc1F | i | 0.31
CCOC(=O)CC1(NC(=O)N2CCCN(c3nc4cccnc4s3)CC2)CCCCC1 | i | -0.32
Cc1ccc2nc(N3CCCC3)c(-c3noc(C)n3)cc2c1 | i | -0.57
COc1ccc(NC(=O)CCc2nc3sc4c(c3c(=O)[nH]2)CCCCC4)c(OC)c1 | i | 0.96
Cc1ccc(-n2c(=O)c3c4c(sc3n(CC(=O)NCCc3ccc(S(N)(=O)=O)cc3)c2=O)CCC4)cc1C | i | 0.53
CCOc1ccc(NC(=O)CN2CCCN(Cc3cccc(C)c3)S2(=O)=O)cc1 | i | -0.76
CC(Sc1nc2ncccc2[nH]1)C(=O)Nc1ccc2c(c1)OCCO2 (configuration not stated) | i | -2.15
Cc1cc(NC2CCCC2)n2nc(C)c(-c3ccc(F)cc3)c2n1 | i | 0.32
CCCN1C(=O)c2c(C(=O)Nc3ccccc3CC)ncn2CC1(C)C(=O)NCc1ccccc1 (configuration not stated) | i | -0.41
Cc1ccc(C)c(NC(=O)N2CCN(Cc3cc(=O)n4nc(-c5ccc(F)cc5)sc4n3)CC2)c1 | i | 0.88
Cc1cc2c(cc1S(=O)(=O)N(C)CC(=O)NCc1ccccc1)OCC(=O)N2 | i | 0.61
COc1cccc(CNC(=O)N2CSC[C@@H]2C(=O)NCc2csc(C)n2)c1 | i | 0.04
CCN(CC)CCNC(=O)c1c(-c2cccc(Br)c2)noc1C | i | -0.51
O=C(Nc1nccs1)C1CCCN(S(=O)(=O)c2cc(-c3noc(C4CCC4)n3)cs2)C1 (configuration not stated) | i | -0.85
Cc1ccc(-c2cc3c4nnc(CCC(=O)NCCCOC(C)C)n4ccn3n2)cc1C | i | -0.72
O=S(=O)(c1ccc(F)c(F)c1)N1CCc2nc(-c3ccc(F)cc3)ncc2C1 | i | 1.58

(further entries)
Structure | Anaer choline gr | Anaer choline gr early
CC(C)N1CCN(S(=O)(=O)c2ccc(-c3nnc(C4CCCC4)o3)o2)CC1 | i | -0.71
O=C(NCCC1=CCCCC1)c1cccc(Nc2ncc(-c3ccc(F)cc3)cn2)c1 | i | 0.79
COc1cc(-c2nc(-c3ccc(-c4csc(C5CC5)n4)cc3)no2)cc(OC)c1OC | i | 0.27
CCCNC(=O)Cn1c(CC)nc2onc(C)c2c1=O | i | -1.37
O=C(Nc1cc(F)c2[nH]c(=O)ccc2c1)c1ccc(F)cc1 | i | 0.03
CCCCSc1nnc2c(n1)OC(c1sccc1C)N(C(C)=O)c1ccccc1-2 (configuration not stated) | i | -0.12
CCOC(=O)c1c(C)sc(-c2c(-c3cc4ccccc4o3)[nH]c3c2c(=O)n(C)c(=O)n3C)c1O | i | 0.78
CCCC(=O)Nc1ccc2c(c1)nc(CN1CCN(C(C)=O)CC1)n2CC | i | 0.9

From PubChem BioAssay
